# Ab BasE inh: blocks the Acinetobacter baumannii siderophore enzyme BasE. actives 0.1% (n = 84,000). purified BasE, fluorescence polarization binding displacement. AID 485350. inhibition, % (concentration not given with the values);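 active = both replicates above 25% with normal brightness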;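 also: 0% = negative plate control signal and 100% = positive plate control signal; stock transfer was 100 nL into about 30 µL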
# KSHV LANA nucl: LANA-nucleosome interaction inhibition; FITC-LANA1-23 / chicken nucleosome fluorescence polarization; hits give low values; z-score (no concentration beside the values); actives 0.3% (n = 51,000);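 active = both repeat wells score below -2 in polarization z-score versus plate sample wells, excluding overly bright wells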;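 also: 100 nL library stock added to about 30 µL; numbers are from one replicate; some results filed as inactive read as strong as hits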
#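 System – purified chicken nucleosomes with FITC-labelled LANA N-terminal peptide (1-23) · Amount – 240 nM purified chicken nucleosomes (480 nM peptide binding sites), final · Also added – 50 nM FITC-LANA1-23 probe · Medium – TEN-BT buffer, pH 7.5 · Incubation – compound with peptide–nucleosome mix 10–45 min at room temperature · Detection – fluorescence polarization, ex 480 nm, em 535 nm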
# * hit, by the source's call; nt = not tested or not shown; & = joins results of further samples. Some of the compounds tested; count on the stated rates, not on these rows.
# Every second line gives: Ab BasE inh	KSHV LANA nucl
> CCCN(CCC)S(=O)(=O)c1ccc(C(=O)Nc2ccc3sc(SC)nc3c2)cc1
    1.1	nt
> Cc1ccc(N2C(=O)c3ccccc3NC2c2ccc(C)o2)cc1 (stereo not given)
    0.9	nt
> O=C1NC2CC3CC(C2)CC1C3
    1.6	1
> CCOC(=O)C1=C(C)NC(=O)NC1c1cn(-c2ccccc2)nc1C (stereo not given)
    -2.1	nt
> Brc1ccsc1-c1ccn[nH]1
    nt	-1.4
> CC(=O)OC12CC3CC(C1)C(=O)C(C3)C2
    1.3	-0.026
> COc1cccc(CNc2cccc3cccnc23)c1O
    -1.1	-0.23
> COC(=O)C1CCN(C(=O)CN(C)Cc2ccc(C(C)(C)C)cc2)CC1
    -1.6	nt
> O=C(COc1ccc(Cl)cc1Cl)N=P(C1CCCCC1)(N1CCOCC1)N1CCOCC1
    -0.2	nt
> CCOC(OCC)P(=O)(C(C)C)C(C)C
    0.0	0.12
> CC1C(c2ccccc2)O/C(=N\S(=O)(=O)c2ccc(Cl)cc2)N1C (stereo not given)
    -2.1	nt
> O=C(Oc1ccc(Cl)cc1Cl)c1ccc(Br)o1
    2.2	nt
> O=C1Oc2ccccc2C(=O)/C1=C\N1CCCc2ccccc21
    -0.3	nt
> CC1=NN(CCC#N)C(=O)/C1=C\c1ccc(N)cc1
    0.2	-0.44
> O=C(Nc1ccc2c(c1)OC1(CCCC1)O2)C1CC(=O)N(C2CCCC2)C1 (stereo not given)
    1.1	nt
> CCCN1CCC(NC(=S)Nc2ccc(C(=O)OCC)cc2)CC1
    -2.4	0.17
> O=C(COc1ccc2ccc(=O)oc2c1)NC(=O)Nc1ccc2c(c1)OCCO2
    0.7	nt
> Cc1ccc(S(=O)(=O)Cc2ccc(C(=O)O)o2)cc1
    5.0	-0.27
> CC1=C(C(N)=O)C(c2ccccc2Cl)N2C(=O)CSC2=N1 (stereo not given)
    2.6	0.26
> N#Cc1c(F)cccc1N(Cc1cccnc1)C(=S)Nc1ccc(Cl)c(Cl)c1
    0.5	nt
> O=C(NCCc1ccccn1)c1cccc(S(=O)(=O)N2CCc3ccccc32)c1
    -4.1	nt
> Cc1cccc(N2CCN(S(=O)(=O)c3ccc4c(c3)n(C)c(=O)n4C)CC2)c1C
    -1.8	-0.23
> Nc1nc2n(n1)C(c1ccco1)CC(c1ccc(F)cc1)N2 (stereo not given)
    -1.0	-0.49
> CC(CNc1ccccc1)C(=Nc1ccccc1)Nc1ccccc1 (stereo not given)
    0.0	nt
> N#Cc1cc2c(nc1SCc1ccncc1)CCC2
    6.2	0.94
> N#C/C(=C/c1ccc(Sc2ccccc2)o1)c1cccc(F)c1
    0.9	0.097
> CSc1nnc(C2CCCN2C(=O)OC(C)(C)C)o1 (stereo not given)
    0.0	1
> O=C1CSC(=S)N1/N=C/c1cccs1
    -2.3	nt
> Cn1c(=O)c2cc(S(=O)(=O)NC(C(=O)N3CCc4ccccc43)c3ccccc3)ccc2n(C)c1=O (stereo not given)
    -0.2	0.26
> C=CCc1cc(OC)ccc1O
    3.0	nt

# Quoted from the listing:
# Result for Cn1c(=O)c2cc(S(=O)(=O)NC(C(=O)N3CCc4ccccc43)c3ccccc3)ccc2n(C)c1=O (stereo not given) in KSHV LANA nucl: 0.26
# Result for CC1=NN(CCC#N)C(=O)/C1=C\c1ccc(N)cc1 in KSHV LANA nucl: -0.44
# Result for Cc1cccc(N2CCN(S(=O)(=O)c3ccc4c(c3)n(C)c(=O)n4C)CC2)c1C in Ab BasE inh: -1.8

# (cont.)
# Every second line gives: Ab BasE inh	KSHV LANA nucl
> CC(C)C(NC(=O)c1ccccc1)c1nnc(SCC(=O)Nc2nccs2)n1C (stereo not given)
    0.6	-0.24
> Cc1ccc(CC(C#N)Sc2nnc(C)n2Cc2ccccc2)cc1 (stereo not given)
    -4.5	nt
> Oc1ccc(/C=N/NC(=S)Nc2ccc(Cl)cc2Cl)c(O)c1O
    34*	nt
> C=CCn1c(=O)[nH]c2ccccc21
    2.1	nt
> CCCC(O)=NS(=O)(=O)c1ccc(N=NN(C)C)cc1
    0.4	-0.74
> CCC(=O)Nc1ccc(NC(=O)CC)cc1
    0.0	-0.84
> CCNc1nc(NCC)n2c(SCC(=O)N(CC)C3CCCCC3)nnc2n1
    -0.3	nt
> c1ccc2c(c1)ncn2CC1CCCCC1
    5.4	-0.31
> c1ccc2c(c1)c(NCC1CCCO1)nn1nnnc21 (stereo not given)
    -1.3	nt
> O=C(OCC(=O)N1CCN(C(=O)c2ccco2)CC1)c1ccc2c(=O)n3c(nc2c1)CCC3
    0.8	nt
> O=c1c2sccc2[nH]c(=S)n1Cc1ccccc1
    -2.4	nt
> COC(=O)Cn1c(=NC(=O)C2CC2)sc2c(C)cc(C)cc21
    -2.2	-1.8
> O=C(CSCc1ccco1)c1ccc(F)cc1
    0.5	nt
> COc1cc(-c2nnc(SCC(=O)c3cc4c5c(c3)CC(=O)N5CCC4)o2)cc(OC)c1OC
    -1.5	nt
> O=C(c1cccs1)N1c2ccccc2Sc2ccccc21
    -2.9	nt

# 2 compounds drawn at random from those above:
# Every second line gives: Ab BasE inh	KSHV LANA nucl
> O=C(OCC(=O)N1CCN(C(=O)c2ccco2)CC1)c1ccc2c(=O)n3c(nc2c1)CCC3
    0.8	nt
> CCCC(O)=NS(=O)(=O)c1ccc(N=NN(C)C)cc1
    0.4	-0.74

# The list continues:
# Every second line gives: Ab BasE inh	KSHV LANA nucl
> Cc1cccc(CCNC(=O)c2ncoc2-c2cccs2)c1
    -0.5	0.21
> CC1(C)CC2=NNC(c3ccccc3)C2CO1 (stereo not given)
    -2.8	0.65
> Cc1ccc(C(=O)n2nc(-c3cccnc3)nc2N)cc1
    4.0	0.88
> Cc1ccccc1Cn1ccc(NC(=O)c2cc3ncc(Br)cn3n2)n1
    0.6	-0.63
> CC(C)CN(Cc1nnc(-c2ccccc2)o1)CC(C)C
    0.9	-0.95
> O=C(Nc1nn2cc(-c3ccccc3)nc2s1)c1ccccc1
    2.8	nt
> O=C(CCC1=NS(=O)(=O)c2ccc(C(F)(F)F)cc2N1)NCCc1ccco1
    1.4	0.92
> On1c(-c2ccccc2)cc2ccccc21
    0.3	0.15
> CCOc1ccc(C(C)NCCO)cc1 (stereo not given)
    -3.8	2.3
> CC1CCN(C(=O)Cn2cc(SCC(=O)NC(C)(C)C)c3ccccc32)CC1
    0.0	-0.85
> CCc1c(C)c(C#N)c2nc3ccccc3n2c1NCC(C)C
    -3.7	2
> O=C(CCSCc1cnn(-c2ccccc2)c1-n1cccc1)NCc1ccco1
    -3.7	2.3
> Oc1c(I)cc(Cl)c2cccnc12
    1.1&1.5	-0.098&-0.7&0.31
> O=C(Oc1cccnc1I)c1ccccc1
    nt	0.14
> Cc1[nH]c2ccccc2c1C(=O)CSC(=S)N1CCN(C)CC1
    -3.7	0.67
> CCn1c(SCc2nc3ccccc3c(=O)[nH]2)nnc1-c1ccc(OC)c(OC)c1
    -1.2	-1.1
> O=c1[nH]nc(SCc2cc(=O)n3cc(Br)ccc3n2)n1Cc1ccccc1
    3.5	nt
> Cc1ccc(-c2cnc3ccccc3n2)cc1
    -0.1	-1.3
> NC(=O)CSc1cn(Cc2ccc(F)cc2)c2ccccc12
    -2.5	-0.79
> CCOC(=O)c1ccc2nc(C(F)(F)F)nc(NCCCO)c2c1
    -0.7	-1.3
> COc1ccc(Cc2nnc(SC)[nH]c2=O)cc1
    -4.0	1.6
> COc1ccc(S(=O)(=O)c2cnc3cc(OC)c(OC)cc3c2N2CCC(C)CC2)cc1
    -0.1	-0.12
> COc1ccc(Br)c2c1-c1nc(/N=C/c3ccc(C)cc3)sc1C2
    1.5	nt
> CC(C)n1c(N2CCN(Cc3ccc(Cl)cc3)CC2)nc2ccccc21
    2.1	-0.15
> COc1ccc(-n2nc3ccc(NC(=O)CSc4ccc(Cl)cc4)cc3n2)cc1
    0.0	nt
> O=c1c2ccccc2c(/C=N/C2=NCCS2)c(O)n1-c1ccc(Cl)cn1
    1.9	nt
> CCn1c(O)c(C=NC2CCCCCC2)c(=O)[nH]c1=S
    1.0	0.98
> OCCCCC1OC2CCCCC2C2=CCCCC21 (stereo not given)
    0.3	-0.37
> CCCn1c(=O)sc2ccccc2c1=O
    nt	1.9
> CC(C)CCn1c(=O)c2ccccc2n2c(COC(=O)C3CC=CCC3)nnc12 (stereo not given)
    1.5	nt
> [O-][n+]1ccccc1SC/C=C/c1ccccc1
    nt	1
> Cc1cc(C(=O)CSCc2nnc3n(CCC(C)C)c(=O)c4ccccc4n23)c(C)n1C
    3.9	nt
> Cc1nc(-c2cccs2)sc1C(=O)N1CCN(S(=O)(=O)c2ccccc2C(F)(F)F)CC1
    0.1	nt
> CNCC(=O)N(C)C
    1.8	nt
> CCCC(=O)N1c2ccccc2C(N(C(C)=O)c2ccccc2)CC1C (stereo not given)
    1.0	1.5
> COc1cccc(CNC2=NCCC2)c1
    0.9	nt
> C/C(=N\OCc1ccc(C(=O)N2CCOCC2)o1)c1ccc(Cl)cc1Cl
    1.7	-0.99
> O=C(O)Cn1cc(CN2CCCC2)c2ccccc21
    2.0	1
> O=C(CSc1nnc(-c2ccc(F)cc2)o1)C12CC3CC(CC(C3)C1)C2
    0.3	nt
> CC(=O)Nc1ccc(C(=O)CSc2nc(C)cc(=O)[nH]2)cc1
    2.4	nt
> Cn1c(N)c(C(=O)Cn2nnc(-c3cccc(C(F)(F)F)c3)n2)c(=O)n(C)c1=O
    -1.2	nt
> CCCC1c2ccsc2CCN1C(=O)c1ccc(Cl)cc1 (stereo not given)
    -0.3	nt
> O=C(COc1ccc(F)cc1)N/N=C/c1ccc2c(c1)OCCO2
    0.8	nt
> CCc1nc2ccccc2c(C(=O)OCC(=O)c2ccc3c(c2)OCCO3)c1C
    0.6	nt
> COc1ccc(NC(=S)N2CCCCC2)cc1
    2.5	nt
> CNC(=O)Nc1ccc(Oc2cncc(Cl)c2)nc1
    -1.3	-0.21
> CC(=O)Nc1ccc(S(=O)(=O)Nn2cnnc2)cc1
    -0.9	0.062
> COc1ccc(OCCSc2nc(C)cc(=O)[nH]2)cc1
    3.6	2.3
> C#C[C@]1(OC(C)=O)CCC2C3CCC4=CC(=O)CC[C@@H]4C3CC[C@@]21C (stereo not given in full)
    1.3	-0.52&0.7
> N#CC1=C(N)SC(N)=C(C#N)C1
    -22	1.3
> O=C(Cn1c2c(c(-c3ccccc3Cl)cc1=O)CCC2)NCC1CCCO1 (stereo not given)
    1.5	-0.069
> Cc1nn(-c2ccccc2)c2nc3ccccc3c(N3CCOCC3)c12
    0.7	0.43
> O=C1C2c3ccccc3CCN2C(=O)CN1CCc1ccccc1 (stereo not given)
    0.4	-0.57
> CS/C(=C(/C#N)S(=O)(=O)c1ccc(Cl)cc1)N1CCSCC1
    nt	2.4
> CN(Cc1cccs1)C(=O)c1cc(Br)c(Br)s1
    1.9	nt
> CNc1cc(Cl)nc(SC)n1
    nt	1.8
> Cc1cc2c(ccc3nonc32)nn1
    1.8	-0.47
> CCn1c(SCC(=O)NC2CCCC2)nnc1-c1ccccc1
    -3.0	-0.17
> COC(=O)c1ccc(CO/N=C/C(=O)Nc2cccc(C(F)(F)F)c2)o1
    3.0	nt
> CC12CC3CC(C)(C1)CC(C(=O)NCCCN1CCCC1=O)(C3)C2
    0.9	-0.8

# More records follow:
# Every second line gives: Ab BasE inh	KSHV LANA nucl
> NC(=O)COc1cc2oc(=O)c3c(c2cc1Cl)CCCC3
    -0.8	1.9
> CC1CCc2sc(C(=O)N/N=C/c3ccco3)cc2C1 (stereo not given)
    3.4	nt
> CC(=O)N1CCN(C(=O)CSc2nc(-c3ccc(F)cc3)cs2)CC1
    2.6	nt
> Cn1cccc1C(=O)NN
    3.8	nt
> FC(F)Oc1ccc(-c2csc(=Nc3cccnc3)n2C2CC2)cc1
    3.6	nt
> N#CCC(=O)Nc1ccc(C(=O)NCc2ccccc2)cc1
    0.5	nt
> O=C(CSc1nc(-c2ccccc2)cc(C(F)(F)F)n1)NCCN1CCOCC1
    1.3	-1.3
> C(=C\C1Nc2ccccc2-c2nnc(SCc3ccccc3)nc2O1)/c1ccco1 (stereo not given)
    3.5	nt
> S=c1[nH]c2ccccc2n1-c1ccccc1
    0.4	nt
> COc1ccc(C(=O)NCCN=C2NS(=O)(=O)c3ccccc32)cc1
    -4.1	-1.1
> O=C(Oc1ccc(-c2nnco2)cc1)C1CC(=O)N(c2ccc3c(c2)OCCO3)C1 (stereo not given)
    -0.7	nt
> Cc1nc2ccccc2n1CC(O)c1ccccc1 (stereo not given)
    -3.8	nt
> O=c1[nH]nc(-c2cccs2)o1
    0.7	nt
> O=S(=O)(c1cccc(CSc2nc3ccccc3s2)c1)N1CCOCC1
    -1.4	nt
> CC(C)CC(=O)Nc1cc2nn(-c3ccccc3)nc2cc1Cl
    -2.4	2.1
> COC(=O)c1cc2ccc3c(c2oc1=O)CN(Cc1ccco1)CO3
    -0.8	-1
> Cc1ccc(S(=O)(=O)CCN2C=CC(C(F)(F)F)=NCC2)cc1
    1.1	-0.091
> COc1ccc(NC(=O)CCn2c(=O)c3cccn3c3ccccc32)cc1
    6.2	0.64
> CCN(CC)S(=O)(=O)c1ccc2nc(CSc3nnnn3-c3ccc(O)cc3)[nH]c2c1
    0.8	nt
> N#C/C(=C/c1cccc(Oc2ncccn2)c1)c1ccccc1F
    nt	-0.9
> Cc1cccn(Cc2c(Cl)cccc2Cl)c1=O
    -0.3	-0.012
> CCC(=O)c1ccc(OC(=O)c2c(C)noc2C)cc1
    2.3	nt
> Cc1ccc(NC(=O)CN2C(=O)/C(=C\c3ccccc3)SC2=S)cc1
    1.6	nt

# Single records, from the list above.
# COC(=O)Cn1c(=NC(=O)C2CC2)sc2c(C)cc(C)cc21 in the list: Ab BasE inh = -2.2; KSHV LANA nucl = -1.8
# Cc1ccc(-c2cnc3ccccc3n2)cc1 in the list: Ab BasE inh = -0.1; KSHV LANA nucl = -1.3

# Screening data (PubChem)
